TRPML1 ag = qHTS for Agonists of the Human Mucolipin Transient Receptor Potential 1 (TRPML1) | Mucolipin-1 (Homo sapiens), Q9GZU1 | actives 0.12% (n = 410,000) | TRPML1-expressing cells, Ca2+ dye fluorescence, FDSS; host cell line not named in the record; reference of the full effect not given here | activation, % (concentration not given with the values); in the data active = activation above about 50%; inconclusive = about 30% to 50%; inactive = below about 30%; further: 0% is about no effect; the text of the record puts the active cut at 80%
Target sequence (Q9GZU1 whole entry, looked up): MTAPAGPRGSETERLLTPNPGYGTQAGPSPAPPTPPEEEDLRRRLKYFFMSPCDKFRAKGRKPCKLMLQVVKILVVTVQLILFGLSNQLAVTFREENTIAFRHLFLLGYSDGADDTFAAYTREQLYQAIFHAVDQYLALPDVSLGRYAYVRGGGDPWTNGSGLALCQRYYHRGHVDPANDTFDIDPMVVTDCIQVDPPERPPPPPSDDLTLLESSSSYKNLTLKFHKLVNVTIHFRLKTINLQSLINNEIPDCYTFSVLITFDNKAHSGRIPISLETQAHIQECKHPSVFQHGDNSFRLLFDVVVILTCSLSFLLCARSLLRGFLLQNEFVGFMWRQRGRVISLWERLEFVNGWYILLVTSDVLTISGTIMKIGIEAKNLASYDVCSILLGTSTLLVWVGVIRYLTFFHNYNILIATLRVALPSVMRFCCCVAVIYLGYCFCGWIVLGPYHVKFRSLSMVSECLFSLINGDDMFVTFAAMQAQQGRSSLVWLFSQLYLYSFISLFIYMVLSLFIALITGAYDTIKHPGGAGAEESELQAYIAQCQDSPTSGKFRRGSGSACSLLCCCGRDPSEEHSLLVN
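TRPML1-DL cells, Tet-induced overnight (~16 h, 37 degrees C), loaded 45-90 min at room temperature with Ca8 no-wash calcium dye plus quencher. FDSS fluorescence: 10 s baseline, compound pin-transfer, 110 s agonist read, then EC80 54-4 (4uM final) and 110 s antagonist read.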
PINK1 modulator = A Quantitative High throughput Screen to Identify Chemical Modulators of PINK1 Expression. Potency, µM (top dose mostly 76.6 µM), for the others: at the highest dose activation (PINK1 increase), actives largely listed as activators. AID 624263, 2012. actives 0.2% (n = 410,000). PINK1 immunofluorescence, high-content cytometry, 24 h; active = well fitted activation curve with a large enough effect; inconclusive = small, poorly fitted or top-dose-only effect; inactive = flat fitted curve, though single readings scatter; cell line not stated here;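 further: potency means the concentration at half of the fitted maximal effect; % of control where 0% means no effect; nearly all actives have a fitted effect of over 65% in size; a mitochondrial uncoupler was the plate control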
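Stable cell line, 250 cells/well, 12 h attachment; compounds pinned at 5 concentrations, 24 h; CCCP control. Fixed with nuclear dye, primary antibodies 12 h at 10 degrees C, secondary plus cell stain; laser-scanning cytometer read.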
* marks the source's active call; other numbers are inactive results; ? = inconclusive. Not all compounds are listed. The share of hits here may be higher or lower than overall.

canonical_smiles | TRPML1 ag | PINK1 modulator
COc1ccc(CNC(=O)CCNS(=O)(=O)c2ccc3c(c2)CCCC(=O)N3)cc1 | 0.6 | -1.6%
CCOc1ccccc1CNC(=O)CN1C(=O)c2cccnc2Oc2ccc(Cl)cc21 | 2.0 | 0.8%
Cc1cccc(N(CC(=O)NCCSCc2cccc(Cl)c2)S(=O)(=O)c2ccccc2)c1C | 1.3 | -1.0%
CCOc1cccc(C2C=C(c3ccc4c(c3)OCO4)NC(c3ccc(F)cc3)N2)c1O (stereo not drawn) | 0.3 | 0.7%
Cc1ccc2c(CC(=O)N3CCN(c4cccc(Cl)c4)CC3)coc2c1 | 3.3 | 0.2%
COc1cccc(CNC(=O)C(Cc2ccccc2)NS(=O)(=O)c2ccc3c(c2)CCN3C(C)=O)c1 (stereo not drawn) | -0.3 | -0.4%
Cc1cccn2cc(-c3cccc(NS(=O)(=O)c4ccc(Cl)c(Cl)c4)c3)nc12 | 1.9 | -4.3%
CCOc1ccccc1NC(=O)CSc1ccc2nc(-c3ccccc3)cn2n1 | 1.3 | -0.4%
COc1cccc(CNC(=O)c2ccc3c(c2)c(C)c(C)n3Cc2ccccc2)c1 | 2.7 | 0.2%
O=C(COCc1cc(-c2cccs2)on1)Nc1cccc(Cl)c1Cl | 1.8 | 1.9%
COc1ccc(CCNC(=O)C(C)n2c(=O)cc(C(F)(F)F)c3c(C)nn(C)c32)cc1OC (stereo not drawn) | 1.0 | 7.3%
Cc1ccc(C)c(N2CCN(S(=O)(=O)c3cc(C(=O)Nc4ccc(Oc5ccccc5)cc4)ccc3F)CC2)c1 | 1.3 | -1.3%
CC(=O)c1cccc(NC(=O)Cn2nc(C(F)(F)F)c3c2CCC3)c1 | 1.0 | -0.1%
O=C(Nc1ccc(Br)cc1)c1ccc(Cl)c(S(=O)(=O)N2CCCCCC2)c1 | -0.4 | -1.0%
O=C(Nc1cccc(Cl)c1)C1CCCN(c2ncnc3c2nc2n3CCCCC2)C1 (stereo not drawn) | 0.2 | 14.2%
COc1ccccc1CNC(=O)NCc1noc2ccc(C)cc12 | 1.1 | -1.9%
CCc1cccc(C)c1NC(=O)c1cc(S(=O)(=O)N2CCC3(CC2)OCCO3)ccc1F | 1.5 | -0.6%
COc1ccc(-c2cn3nc(N4CCCC(C(=O)Nc5cc(C)cc(C)c5)C4)sc3n2)cc1 (stereo not drawn) | 1.0 | 0.4%
COC(=O)c1ccc(Nc2nc(-c3ccccc3Cl)nc3ccccc23)cc1 | -0.3 | 2.7%
COc1cccc(-c2nc(CS(=O)(=O)CC(=O)Nc3ccc(C)c(Cl)c3)c(C)o2)c1 | -0.9 | 2.9%
O=c1[nH]cnc2c1ncn2[C@H]1C[C@H](O)[C@@H](CO)O1 | 0.0 | 1.5%
COc1ccc(S(=O)(=O)NCC(c2ccco2)N2CCN(c3ccccc3)CC2)cc1OC (stereo not drawn) | 3.0 | 2.2%
CC(=O)Nc1ccccc1NS(=O)(=O)c1ccccc1NO | 0.8 | -1.3%
Cc1c(CNCc2ccc(Cl)cc2)c(C(=O)O)c(C)n1Cc1ccc(F)cc1 | 0.2 | 0.3%
CCOc1ccc(Nc2nc(C)c(NC(=O)c3ccc(C)cc3)c(Nc3ccc(OCC)cc3)n2)cc1 | -0.8 | 3.3%
Cc1nn2c(=O)cc(COC(=O)c3ccco3)nc2s1 | -0.6 | 0.2%
CCN(CC)c1ccc(NC(=O)C2CCN(c3nnc(-n4cccc4)s3)CC2)c(C)c1 | 2.6 | -2.9%
COc1ccccc1NC(=O)CSc1oc(-c2cccs2)nc1S(=O)(=O)c1ccccc1 | 1.0 | 0.1%
O=C(NCC(c1cccnc1)N1CCc2ccccc21)C(=O)Nc1ccccc1F (stereo not drawn) | 4.4 | -2.4%
COc1ccc(Nc2nn(-c3ccc(OC(F)(F)F)cc3)nc2C(C)=O)cc1 | -0.3 | 0.8%
COc1cc(C(=O)N(CCCN(C)C)c2nc3c(OC)cccc3s2)cc(OC)c1OC | 0.4 | 0.4%
CCC1CCCCN1CCCNC(=O)c1cc2c(Cl)nc3ccc(C)cc3c2s1 (stereo not drawn) | -0.4 | 2.9%
CCN(CC)CCNC(=O)c1nn(C)c2c1CS(=O)(=O)c1ccccc1-2 | 0.0 | 0.2%
CC(C)(C)c1ccc(C(=O)NCC(c2cccs2)S(=O)(=O)c2cccs2)cc1 (stereo not drawn) | 1.8 | -0.8%
O=C(COc1ccc(F)cc1)NCCc1nc2ccccc2[nH]1 | 2.1 | 0.7%
CCCn1c2ccc(F)cc2c2nnc(SCCN(CC)CC)nc21 | 1.3 | 1.6%
CCn1c2ccccc2c2cc(/C=C3\C=Cc4ccccc43)ccc21 | 0.1 | 0.8%
COc1cc2[nH]c(=O)n(CCCC(=O)NCc3ccccc3Cl)c(=O)c2cc1OC | -0.9 | -0.7%
CCOc1cc(C(=O)Nc2ccc(-c3nc4ncccc4o3)cc2C)cc(OCC)c1OCC | 0.0 | -1.4%
Cc1cccc(NC(=O)CSc2ncc(-c3ccc(Br)cc3)[nH]2)c1 | 1.1 | 7.8%
CCc1ccc2occ(CC(=O)Nc3c(C(=O)c4ccc(F)cc4)oc4ccccc34)c2c1 | 0.7 | -0.4%
COc1ccc(Cl)cc1NC(=O)N1CCC(CN2CCc3ccccc3C2)CC1 | 3.3 | -1.2%
O=c1c(S(=O)(=O)c2cccc(Cl)c2)cn(Cc2ccccc2)c2cc(N3CCCCC3)c(F)cc12 | 2.0 | -2.7%
CC(C)COc1ccc(C(=O)N2CCN(CCc3ccccn3)CC2)cc1 | -0.2 | 2.4%
CCOC(=O)C1CCCN(S(=O)(=O)c2cc(-c3cc(C)no3)ccc2OC)C1 (stereo not drawn) | -0.9 | -1.5%
Cc1cc(C)cc(N2C(=O)CSC23C(=O)N(CC(=O)NCCc2ccccc2)c2ccccc23)c1 (stereo not drawn) | 1.3 | -4.9%
CCN(CC)CCCNC(=O)Cn1c(-c2cccs2)cc2cc(Cl)ccc21 | 0.5 | 5.4%
C=CCC(CC=C)(CNC(=O)C(=O)Nc1cc(C)ccc1OC)c1ccc(OC)c(OC)c1 | -0.5 | 0.5%
Cc1ccc(C)c(CN2C(=O)C3(c4ccccc42)N(c2ccc(Cl)cc2)C(=O)CS3(=O)=O)c1 (stereo not drawn) | 0.4 | -4.0%
Oc1ccccc1-c1nc(/C=C/c2ccccc2Cl)nn1-c1ccccc1 | 2.8 | 5.1%

Other structures:
canonical_smiles | TRPML1 ag | PINK1 modulator
CC(Nc1oc(-c2ccc(COc3ccc(Cl)cc3)o2)nc1C#N)c1ccccc1 (stereo not drawn) | 0.6 | 5.0%
CCOC(=O)Cn1c(=O)n(-c2ccccc2OC)c2nc(-c3ccccc3)nc(C(N)=O)c21 | 0.5 | 2.3%
COC(=O)c1cc2oc(C)cc2n1CC(=O)Nc1ccc(OC)c(OC)c1 | -0.2 | -1.4%
CCCCN(CCCNC(=O)CN1N=C(c2ccccc2)CCC1=O)c1ccccc1 | 4.2 | -0.2%
O=C(CN1C(=O)CC(c2ccccc2)Sc2ccccc21)Nc1cccc(Cl)c1 (stereo not drawn) | 4.4 | 1.2%
CN(Cc1ccccc1)S(=O)(=O)c1cc(Br)cc2c1N(C(=O)C1CC1)CC2 | -0.5 | 7.0%
O=C(Nc1ccccc1C(F)(F)F)c1noc2c1CCCCC2 | -1.3 | 1.2%
CCOc1ccc(-c2cc(C(=O)NCc3ccc(C)cc3)c3ccccc3n2)cc1 | 1.4 | -1.4%
Cc1cc(Nc2cccc(Cl)c2)nc2ccc(NC(=O)Cc3ccc(Cl)cc3)cc12 | -0.5 | ?
CCn1cc(S(=O)(=O)c2cc(C)cc(C)c2)c(=O)c2cc(F)c(N3CCOCC3)cc21 | 0.9 | 20.3%
CCOc1cccc(NC(=O)C2CC(=O)N(C)C(=Nc3ccc(OC)cc3)S2)c1 (stereo not drawn) | 2.1 | 4.1%
COc1cc(OC)c(OC)cc1CN1CCc2nc(N3CCN(c4ccccc4F)CC3)ncc2C1 | -0.4 | 0.2%
COc1ccc(CCNC(=O)c2cc(=O)[nH]c3ccc(S(=O)(=O)N4CCCCC4)cc23)cc1OC | -0.3 | 0.6%
O=C(NCc1ccc(F)cc1Cl)c1cc(=O)[nH]c2ccc(S(=O)(=O)N3CCCCC3)cc12 | 0.9 | 0.7%
Cc1ccc2nc3c(cc(C(=O)NCc4ccco4)c(=N)n3C(C)C)c(=O)n2c1 | 0.2 | -0.8%
CC1CCN(C(=O)C2COc3ccccc3C2)CC1 (stereo not drawn) | -0.8 | -0.4%
CCSc1nc2ccccc2c(OCc2ccccc2Cl)c1C(=O)OC | -0.5 | 0.5%
COc1ccc(C)c2sc(NC(=O)c3ccc(S(=O)(=O)N4CCCC4)cc3)nc12 | 0.5 | -4.0%
COc1cc2c(NC3CCN(C)CC3)nc(N3CCCN(C)CC3)nc2cc1OCCCC(C)C | -0.6 | -0.8%
O=C(NCC(c1cccnc1)N1CCOCC1)C(=O)Nc1ccc(Cl)cc1 (stereo not drawn) | 0.3 | 0.1%
CCN(CC)c1cc(C)c2cc(NC(=O)/C=C/c3cc(OC)c(OC)c(OC)c3)ccc2n1 | 0.0 | -1.2%
O=c1oc2ccccc2cc1-c1nc(-c2cccc(Cl)c2)cs1 | -0.5 | 1.1%
CCOC(=O)c1ccccc1NC(=O)c1sc2ncn(Cc3cccc(F)c3)c(=O)c2c1C | -0.6 | -0.2%
Cc1ccc2nc(CSc3nnc(NC(=O)COc4ccccc4F)s3)cc(=O)n2c1 | 1.9 | 12.2%
CCc1ccc(CNC(=O)c2cc3cc(S(=O)(=O)N4CCCCC4)ccc3n2C)cc1 | 1.0 | -0.1%
O=C(NCc1ccccc1Cl)c1ccc2c(c1)N(Cc1ccccc1)C(=O)CS2 | 1.0 | 1.0%
CCN1CCSc2ccc(C(=O)NC(C)c3ccccc3)cc21 (stereo not drawn) | 1.5 | 0.1%
Fc1ccc(/C=C/c2nccc3ccccc23)cc1 | 0.4 | 3.3%
COc1ccc(NC(=O)c2sc3nc4n(c(=O)c3c2C)CCC4)c(OC)c1 | 0.2 | 3.5%
Cc1ccccc1CNC(=O)CN1C(=O)C2CCCCN2c2ccc(C(=O)N3CCCC3)cc21 (stereo not drawn) | -0.4 | -0.9%
Cc1ccc(N2CCN(C(=O)c3cn(C)c4ccc(S(=O)(=O)N(C)C5CCCCC5)cc4c3=O)CC2C)cc1 (stereo not drawn) | -0.6 | 1.7%
Cc1cc(N(C)Cc2ccccc2)n2nc(-c3ccc(C(C)(C)C)cc3)nc2n1 | 1.2 | 0.3%
Cc1cc(OCCn2cc(C(=O)c3ccco3)c3ccccc32)ccc1Cl | 0.9 | 0.1%
Cc1ccc(Cc2cn3cc(-c4ccccc4)nc3s2)cc1 | 2.3 | 5.5%
CCc1cccc(C)c1NC(=O)CN(C)S(=O)(=O)c1cccc2nsnc12 | -0.3 | 3.5%
Cc1cccc(Cn2cc(S(=O)(=O)c3ccc(Cl)cc3)c(=O)c3cc4c(cc32)OCO4)c1 | 0.3 | 0.5%
Cc1c(Cl)cccc1NC(=O)c1cc2nc(-c3ccc4c(c3)OCO4)cc(C(F)(F)F)n2n1 | -0.9 | -0.4%
CCOc1ccc(CNC(=O)CCc2c(C)nn(-c3ccc(N4CCOCC4)nn3)c2C)cc1 | -1.1 | 0.7%
COc1ccc2c(c1)CCc1c(C(=O)Nc3c(C)nn(Cc4ccccc4Cl)c3C)noc1-2 | 1.4 | 0.1%
Cc1ccc(Cl)cc1Nc1nc2ccccc2n2c(C)nnc12 | -0.3 | 1.9%
COc1cccc(NC(=O)CC(=O)Nc2ccc3nc4n(c(=O)c3c2)CCCCC4)c1 | -0.7 | 2.1%
CCOC(=O)c1sc(N2C(=O)c3oc4cc(C)c(C)cc4c(=O)c3C2c2ccc(C)cc2)nc1C (stereo not drawn) | -0.5 | -0.7%
COc1cccc(C2=NS(=O)(=O)N(C)C(C(=O)Nc3ccccc3SC)=C2)c1 | 0.6 | -1.1%

Four structures already listed, sorted by count of non-hydrogen atoms, largest number first:
canonical_smiles | TRPML1 ag | PINK1 modulator
Cc1ccc(N2CCN(C(=O)c3cn(C)c4ccc(S(=O)(=O)N(C)C5CCCCC5)cc4c3=O)CC2C)cc1 (stereo not drawn) | -0.6 | 1.7%
COc1ccccc1NC(=O)CSc1oc(-c2cccs2)nc1S(=O)(=O)c1ccccc1 | 1.0 | 0.1%
CC(C)(C)c1ccc(C(=O)NCC(c2cccs2)S(=O)(=O)c2cccs2)cc1 (stereo not drawn) | 1.8 | -0.8%
CC1CCN(C(=O)C2COc3ccccc3C2)CC1 (stereo not drawn) | -0.8 | -0.4%

Assay outcomes: PubChem, National Center for Advancing Translational Sciences (NCATS)
